A647 autofl = qHTS Assay for Spectroscopic Profiling in A647 Spectral Region; Compound fluorescence, A647 channel (570/671 nm), Tris buffer; max dye-equivalent concentration, M; 59,000 tested, under 10 active; AID 592, 2007; active means above 1 µM dye equivalent; inconclusive means 0.1 to 1 µM; inactive means 0.1 µM or less;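 note: values scaled relative to a standard on each plate; highest value over a series up to 38 µM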
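Spectral profiling of library compounds in pH 8.0 Tris: 15 min room-temperature incubation, single ex/em pair (570/671 nm), response normalized to Alexa 647 equivalents.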
Resorufin autofl = qHTS Assay for Spectroscopic Profiling in Resorufin Spectral Region | AID 588, 2007 | Compound fluorescence, resorufin region 547/598 nm, buffer; active compounds read high | max dye-equivalent concentration, M | hit rate 0.04% among 59,000; active = above 10 nM dye equivalent; inconclusive = 1 to 10 nM; inactive = 1 nM or less; a few of its hits are not listed in these tables; note: highest value over a series up to 38 µM
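Read-out: intrinsic compound fluorescence at ex 547/em 598 nm after 15 min at RT in pH 8.0 Tris (100 mM). Values expressed as resorufin-equivalent concentration from per-plate standard series.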
AID923 = qHTS Assay for Allosteric/Competitive Inhibitors of Caspase-1: Spectroscopic Profiling in AFC Spectral Region; hit rate 1.1% among 75,000; Potency, µM (top dose mostly 57.5 µM), for inactives: top-dose fluorescence increase, actives largely listed as activators; compound fluorescence, AFC spectral region (405/520 nm); almost no hit is shown here; active = well fitted activation curve with a large enough effect; inconclusive = small, poorly fitted or top-dose-only effect;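 note: potency is the fitted concentration of half-maximal effect; 0% is about no effect; scaled to a free AFC standard on each plate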
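Titrations up to 57 uM read every 20 sec for 3 min (405/520 nm) with 50 nM caspase 1 and 5 uM Ac-WEHD-AFC, pH 7.5 HEPES buffer. Fluorescence-vs-time intercept gave baseline, scaled against on-plate AFC standard.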
A488 autofl = qHTS Assay for Spectroscopic Profiling in A488 Spectral Region | compound autofluorescence, A488 spectral region, dye equivalency; active compounds read high | max dye equivalency, M | hit rate 0.1% among 59,000; active = above 10 nM dye equivalent; inconclusive = 1 to 10 nM; inactive = 1 nM or less; about half of its hits are not listed in these tables;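 note: highest value over a series up to 38 µM; compound alone in buffer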
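Compounds pin-transferred into 100 mM Tris buffer, pH 8.0, incubated 15 min at room temperature, then imaged with 480 nm excitation/540 nm emission filters. Fluorescence converted to Alexa 488 dye-equivalent concentration via an on-plate six-point A488 standard curve.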
TSHR ag = qHTS Assay for Agonists of the Thyroid Stimulating Hormone Receptor | Thyrotropin receptor (Homo sapiens), P16473 | HEK293-CNG-TSHR cells (CNG channel as cAMP sensor), membrane potential dye, cAMP | Potency, µM (doses to about 57.1 µM), for the others: top-dose activation, actives largely listed as activators | hit rate 0.48% among 73,000 | AID 926, 2007; active = well fitted activation curve of enough size with the parental cells flat; inconclusive = any curve in the parental cells; inactive = parental cells flat and receptor cells flat or falling; note: potency is the fitted concentration of half-maximal effect; % of control where 0% means no effect; weak receptor curves with flat parental cells got no call and are not listed
Target sequence (P16473 whole entry, looked up): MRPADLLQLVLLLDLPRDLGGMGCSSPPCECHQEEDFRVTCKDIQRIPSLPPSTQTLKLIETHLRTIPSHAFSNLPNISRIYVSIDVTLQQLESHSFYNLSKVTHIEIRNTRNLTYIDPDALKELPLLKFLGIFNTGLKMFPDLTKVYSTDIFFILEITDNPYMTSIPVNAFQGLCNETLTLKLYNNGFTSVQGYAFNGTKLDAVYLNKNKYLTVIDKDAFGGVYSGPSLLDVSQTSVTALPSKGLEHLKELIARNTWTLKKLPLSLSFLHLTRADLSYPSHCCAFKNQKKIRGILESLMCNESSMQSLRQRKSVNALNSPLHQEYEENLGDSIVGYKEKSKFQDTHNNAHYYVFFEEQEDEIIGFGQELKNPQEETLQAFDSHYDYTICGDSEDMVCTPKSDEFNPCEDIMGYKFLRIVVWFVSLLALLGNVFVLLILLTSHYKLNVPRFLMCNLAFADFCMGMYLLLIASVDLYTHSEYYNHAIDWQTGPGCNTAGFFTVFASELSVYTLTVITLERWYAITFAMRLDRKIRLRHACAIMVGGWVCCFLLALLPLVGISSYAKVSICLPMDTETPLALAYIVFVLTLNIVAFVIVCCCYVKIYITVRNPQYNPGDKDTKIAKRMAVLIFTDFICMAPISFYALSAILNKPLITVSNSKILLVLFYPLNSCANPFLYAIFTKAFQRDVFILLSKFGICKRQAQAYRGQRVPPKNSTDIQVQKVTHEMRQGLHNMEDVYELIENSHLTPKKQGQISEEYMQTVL
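HEK 293 cells stably expressing TSHR and a cAMP-gated CNG channel; parental CNG-only cells as counterscreen. Cells preloaded 60 min with membrane potential dye plus 100 uM RO 20-1724, then compound 30 min; fluorescence read at 590 nm.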
* = called active by the depositor; & = joins results of further samples; [ ] = remark or other dose. A portion of the library (hit frequency here may not be typical).

Clc1ccccc1 was read as AID923 2.2% and TSHR ag inconclusive.
Screening COc1ccc(OC)c(C(O)C(C)N)c1 (stereo not drawn) returned A647 autofl 3.2e-09, Resorufin autofl inactive, AID923 0.3% and A488 autofl inactive.
CC(C)C(=O)Nc1ccc([N+](=O)[O-])c(C(F)(F)F)c1 was read as A647 autofl 4.2e-08&2e-08, Resorufin autofl inactive, AID923 -4.2%, A488 autofl inactive and TSHR ag -12%.
`O=C(Cl)OCc1ccccc1` gave AID923 -0.7% and TSHR ag -15%.
`O=C(CNS(=O)(=O)c1ccc(Br)s1)N1CCC2(CC1)OCCO2` gave A647 autofl 9.9e-09, Resorufin autofl inactive, AID923 1.0%, A488 autofl inactive and TSHR ag 4%.
`CC(=NCc1ccco1)c1c(O)n(Cc2ccccc2)c(=O)[nH]c1=O` gave A647 autofl 2.3e-08, Resorufin autofl inactive, AID923 -3.1%, A488 autofl inactive and TSHR ag 3%.
Screening O=C(O)CN1C(=O)CN=C(c2ccccn2)c2cc(Cl)ccc21 returned A647 autofl 1.4e-08, Resorufin autofl inactive, AID923 1.3%[11.5 µM], A488 autofl inactive and TSHR ag 9%[11.4 µM].
For O=P(C(c1c[nH]c2ccccc12)N1CCOCC1)(N1CCOCC1)N1CCOCC1 (stereo not drawn) the results were A647 autofl 1e-09, Resorufin autofl inactive, AID923 -1.8%, A488 autofl inactive and TSHR ag 0%[11.4 µM].
`CCC(=O)N1c2ccc(S(=O)(=O)CCC(=O)N3CCC4(CC3)OCCO4)cc2CC1C` (stereo not drawn) gave A647 autofl 1e-09, Resorufin autofl inactive, AID923 -0.4%, A488 autofl inactive and TSHR ag -3%[11.4 µM].
`C=CCN1C(=O)C2(C(C(=O)OCC)=C(N)Oc3ccccc32)c2c1c1ccccc1oc2=O` (stereo not drawn) gave A647 autofl 1e-09, Resorufin autofl inactive, AID923 0.6%, A488 autofl inactive and TSHR ag 11%.
For Oc1c(Br)cc(Br)cc1Br the results were AID923 -1.2% and TSHR ag inconclusive.
Screening O=c1cccc2n1CC1CC2CN(Cc2ccc3c(c2)OCO3)C1 (stereo not drawn) returned AID923 -1.6% and TSHR ag 10%.
`C[N+]1(C)[C@@H]2CC(OC(=O)[C@H](CO)c3ccccc3)C[C@H]1[C@@H]1O[C@@H]12` (stereo partly drawn) gave A647 autofl 1e-09, Resorufin autofl inactive and A488 autofl inactive.
`CC(C)C(=O)c1cn(Cc2ccccc2C#N)c2ccccc12` gave A647 autofl 1e-09, Resorufin autofl inactive, AID923 -2.6%, A488 autofl inactive and TSHR ag inconclusive.
`CCC12CN3CCN(CC(C3)/C1=N\O)C2` gave AID923 -0.5% and TSHR ag inconclusive.
`O=[N+]([O-])c1ccc(Cl)c(Cl)c1Cl` gave AID923 -3.8% and TSHR ag 0%.
Screening CC(C)n1cc2c3c(cccc31)[C@@H]1C[C@H](C(=O)O[C@@H](C)[C@H](C)O)CN(C)[C@H]1C2 returned A647 autofl 1e-09, Resorufin autofl inactive, AID923 -2.1%, A488 autofl inactive and TSHR ag 8%.
Screening CCn1c(=O)cc(SCC(=O)N2CCC3(CC2)OCCO3)c2ccccc21 returned A647 autofl 8.6e-09, Resorufin autofl inactive, AID923 1.6%, A488 autofl inactive and TSHR ag -5%.
For c1csc(CN2CCC3(CCNCC3)CC2)n1 the results were A647 autofl 3e-09, Resorufin autofl inactive, AID923 1.6%, A488 autofl inactive and TSHR ag -1%.
CC[C@@H](CO)NC(=O)[C@H]1C=C2c3cccc4[nH]cc(c34)C[C@H]2N(C)C1 was read as AID923 13% and TSHR ag 2%.
For Cn1c2ccccc2c2c(C(=O)N3CCC4(CC3)OCCO4)cn(C3CCCCC3)c(=O)c21 the results were A647 autofl 6.4e-09, Resorufin autofl inactive, AID923 -2.5%, A488 autofl inactive and TSHR ag 18%.
For O=C(c1ccc(Cl)cc1)C12CN3CN(CN(C3)C1)C2 the results were A647 autofl 2.4e-08, Resorufin autofl inactive, AID923 0.8%, A488 autofl inactive and TSHR ag 1%.
For Cc1ccc(-n2nc(C)c3c2NC(=O)CSC3c2ccc3c(c2)OCO3)cc1 (stereo not drawn) the results were A647 autofl 6.1e-09, Resorufin autofl inactive, AID923 0.6%, A488 autofl inactive and TSHR ag 17%.
CN(C)c1ccc(NC(=O)CN2C(=O)CN=C(c3ccccc3)c3ccccc32)cc1 was read as A647 autofl 2e-08, Resorufin autofl inactive, AID923 -0.3%, A488 autofl inactive and TSHR ag -1%.
`O=C(O)[C@@H](O)[C@@H](O)[C@@H]1[O][Sb][O][C@@H]1CO` gave A647 autofl 1e-09, Resorufin autofl inactive, AID923 -1.8%[11.5 µM] and A488 autofl inactive.
`NC[C@@H](CC(=O)O)c1ccc(Cl)cc1` gave A647 autofl 1.4e-09&1e-08, Resorufin autofl inactive, AID923 0.0%, A488 autofl inactive and TSHR ag inconclusive.
`COc1ccc(OC)c([C@H](O)[C@H](C)N)c1` gave A647 autofl 5e-09&4.9e-08, Resorufin autofl inactive, AID923 -0.8%[25.7 µM], A488 autofl inactive and TSHR ag 5%[25.6 µM].
For CC(=NCCN1CCOCC1)c1c(O)n(C2CCCCC2)c(=O)[nH]c1=O the results were A647 autofl 3.2e-08, Resorufin autofl inactive, AID923 -0.1%, A488 autofl inactive and TSHR ag -3%.
Screening CC1=NN(c2ccc(S(=O)(=O)O)cc2C)C(=[OH+])[C@H]1N=Nc1cc(S(=O)(=O)O)ccc1C(=O)O.O.[Cr] returned A647 autofl 1e-09, Resorufin autofl inactive, AID923 1.4%[11.5 µM], A488 autofl inactive and TSHR ag inconclusive.
Screening COc1ccc(Cn2c(O)c(C=NCCCn3ccnc3)c(=O)[nH]c2=O)cc1 returned A647 autofl 1e-09, Resorufin autofl inactive and A488 autofl inactive.
Screening CC(=NCCCn1ccnc1)c1c(O)n(C)c(=O)n(C)c1=O returned A647 autofl 3.2e-08, Resorufin autofl inactive, AID923 -1.1%, A488 autofl inactive and TSHR ag -3%.
For COc1ccc(CCNCc2ccccn2)cc1OC the results were A647 autofl 5e-09, Resorufin autofl inactive, AID923 -2.1%, A488 autofl inactive and TSHR ag 11%.
Screening CCCCN1C(=O)NC(=O)C2(Cc3cc(C)ccc3N(C)C2)C1=O (stereo not drawn) returned A647 autofl 4.7e-09, Resorufin autofl inactive, AID923 -1.1%, A488 autofl inactive and TSHR ag 8%.
Screening OCCN1C2CCC1CC(O)(c1ccc(F)cc1)C2 (stereo not drawn) returned A647 autofl 5.6e-09, Resorufin autofl inactive, AID923 -2.2%, A488 autofl inactive and TSHR ag 3%.
Screening O=C(O)COc1ccccc1 returned AID923 -0.7% and TSHR ag 5%.
Screening CC(=NCCCN1CCOCC1)c1c(O)n(-c2ccccc2C)c(=O)[nH]c1=O returned A647 autofl 1.8e-08, Resorufin autofl inactive, AID923 -3.9%, A488 autofl inactive and TSHR ag 11%.
Screening c1ccc2c([C@@H]3CCN(CCN4CCOCC4)C3)c[nH]c2c1 returned A647 autofl 4.6e-08, Resorufin autofl inactive, AID923 -0.2%[11.5 µM], A488 autofl inactive and TSHR ag 5%[11.4 µM].
`O[C@@H]1CCCC[C@H]1N1CCC(c2ccccc2)CC1` gave A647 autofl 1.9e-08&1.9e-08, Resorufin autofl inactive, AID923 -3.0%&-1.9%, A488 autofl inactive and TSHR ag 14%.
CCN1CCC2(CCNC2)C1 (stereo not drawn) was read as A647 autofl 9.2e-09, Resorufin autofl inactive, AID923 0.5% and A488 autofl inactive.
`O=c1[nH]cc(F)c(=O)[nH]1` gave A647 autofl 1.3e-08, Resorufin autofl inactive, AID923 5.3%, A488 autofl inactive and TSHR ag inconclusive.
For C[C@@H]1O[C@H](OC2[C@@H](O)[C@H](O)C(O)[C@H](O)[C@H]2O)[C@@H](N)C[C@@H]1N=C(N)C(=O)O (stereo partly drawn) the results were A647 autofl 1e-09, Resorufin autofl inactive, AID923 -2.5%[11.5 µM], A488 autofl inactive and TSHR ag 1%[11.4 µM].
COC(=NC1CCCC1)C(O)c1c[nH]c2ccccc12 (stereo not drawn) was read as A647 autofl 1.3e-08, Resorufin autofl inactive, AID923 -1.7%, A488 autofl inactive and TSHR ag 4%.
CCCN1CCc2cc(O)cc3c2[C@H]1Cc1ccc(O)c(O)c1-3 was read as A647 autofl 5.8e-09, Resorufin autofl inactive, AID923 1.0%, A488 autofl inactive and TSHR ag 4%.
Nc1ccccc1C(=O)OCCOc1ccccc1 was read as A647 autofl 1.6e-08, Resorufin autofl inactive, AID923 -1.3%, A488 autofl inactive and TSHR ag 17%.
O=c1[nH]c(=O)n([C@H]2C[C@H](O)[C@H](CO)O2)cc1/C=C\Br was read as A647 autofl 1e-09, Resorufin autofl inactive, AID923 0.3%, A488 autofl inactive and TSHR ag inconclusive.
Clc1cc(Cl)cc(Cl)c1 was read as AID923 -1.1% and TSHR ag inconclusive.
O=C(Oc1ccccc1)N1CCC[C@@]2(CCN(Cc3nccs3)C2)C1 was read as A647 autofl 1e-09, Resorufin autofl inactive, AID923 3.0%, A488 autofl inactive and TSHR ag -3%.
COC(=O)c1ccc(CN2CCN(Cc3ccccc3)CC2)cc1 was read as AID923 1.9% and TSHR ag 11%.
`CN1CC[C@@]2(CCCN(C(=O)Oc3ccccc3)C2)C1` gave A647 autofl 3e-09, Resorufin autofl inactive, AID923 3.6%, A488 autofl inactive and TSHR ag -2%.
Cc1nc2ccccc2cc1C[N+]12CN3CN(CN(C3)C1)C2 was read as A647 autofl 3.4e-09, Resorufin autofl inactive, AID923 -1.2%[11.5 µM], A488 autofl inactive and TSHR ag 1%[11.4 µM].

Some of these compounds in order of formula weight, rising:
`CN1CC[C@@]2(CCCN(C(=O)Oc3ccccc3)C2)C1` gave A647 autofl 3e-09, Resorufin autofl inactive, AID923 3.6%, A488 autofl inactive and TSHR ag -2%.
Cc1nc2ccccc2cc1C[N+]12CN3CN(CN(C3)C1)C2 was read as A647 autofl 3.4e-09, Resorufin autofl inactive, AID923 -1.2%[11.5 µM], A488 autofl inactive and TSHR ag 1%[11.4 µM].
O=c1[nH]c(=O)n([C@H]2C[C@H](O)[C@H](CO)O2)cc1/C=C\Br was read as A647 autofl 1e-09, Resorufin autofl inactive, AID923 0.3%, A488 autofl inactive and TSHR ag inconclusive.

(cont.)
Screening C/C=C1\C[C@H](C)[C@@](O)(CO)C(=O)OCC2=CCN3CC[C@@H](OC1=O)[C@@H]23 returned A647 autofl 2.7e-08, Resorufin autofl inactive, AID923 1.4%[25.7 µM], A488 autofl inactive and TSHR ag -7%[25.6 µM].
Cc1c(C(=O)N2CCC3(CC2)OCCO3)oc2ccccc12 was read as A647 autofl 2.3e-09, Resorufin autofl inactive, AID923 0.1%, A488 autofl inactive and TSHR ag 3%.
For O=C1C2CCCN2C(c2cccs2)N1c1ccccn1 (stereo not drawn) the results were A647 autofl 1.4e-09, Resorufin autofl inactive, AID923 1.4%, A488 autofl inactive and TSHR ag 3%.
Cn1c(O)c(C=Nc2ccc3c(c2)CCC3)c(=O)n(C)c1=O was read as AID923 0.9% and TSHR ag 11%.
`N[C@H](CCP(=O)(O)O)C(=O)O` gave A647 autofl 7e-09, Resorufin autofl inactive, AID923 -6.7%&5.9%, A488 autofl inactive and TSHR ag inconclusive.
`O=C1NC(=O)N(C2CCCCC2)C(=O)C1C1c2ccccc2C(=O)N1Cc1ccccc1` (stereo not drawn) gave A647 autofl 1e-09, Resorufin autofl inactive, AID923 0.8%, A488 autofl inactive and TSHR ag 21%.
Screening O=C(O)Cc1ccc([N+](=O)[O-])cc1[N+](=O)[O-] returned A647 autofl 1e-09, Resorufin autofl inactive, AID923 -1.8%[11.5 µM], A488 autofl inactive and TSHR ag 3%[11.4 µM].
For Cc1cccc(C2=NCC(=O)N(CC(=O)NCc3ccco3)c3sc4c(c32)CCCC4)c1 the results were A647 autofl 4.8e-08, Resorufin autofl inactive, AID923 0.9%, A488 autofl inactive and TSHR ag inconclusive.
